AmpC nodet inh – Promiscuous and Specific Inhibitors of AmpC Beta-Lactamase (assay without detergent); Potency, µM (top dose mostly 28.7 µM), for inactives: at the highest dose activity change, negative = inhibition; 71,000 tested, 1.8% active; AmpC nitrocefin hydrolysis, absorbance 480 nm, no detergent; potencies from a single point are estimates; AID 585, 2007; P00811; active = falling curve, for most hits resting on a single point; inconclusive = weak or doubtful change; inactive = flat or rising curve; further: % of control where 0% means no effect; about half of the hits show no inhibition at the top dose; a quarter of the inactives give rising signals
Target sequence (P00811 whole entry, looked up): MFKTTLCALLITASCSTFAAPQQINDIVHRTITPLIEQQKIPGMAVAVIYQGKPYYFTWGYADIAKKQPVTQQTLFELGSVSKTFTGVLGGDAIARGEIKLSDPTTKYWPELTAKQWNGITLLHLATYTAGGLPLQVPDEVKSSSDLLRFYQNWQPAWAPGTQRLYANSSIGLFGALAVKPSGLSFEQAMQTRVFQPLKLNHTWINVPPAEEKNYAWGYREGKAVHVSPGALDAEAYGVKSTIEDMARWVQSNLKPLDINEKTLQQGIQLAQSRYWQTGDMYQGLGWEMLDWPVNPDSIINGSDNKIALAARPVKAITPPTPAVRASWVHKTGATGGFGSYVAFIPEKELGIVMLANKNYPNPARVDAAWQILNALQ
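Enzyme, pH 7.0 phosphate. Compound titrations were pre-incubated with AmpC for 15 min at room temperature before nitrocefin (stock 800 uM) addition; product formation was recorded at 480 nm every 20 s for 4 min.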
* marks the source's active call; other numbers are inactive results; ? = inconclusive; [ ] = remark or other dose. Potency means the concentration at half of the fitted maximal effect. Not all compounds are listed. The share of hits here may be higher or lower than overall.

item | structure | AmpC nodet inh
1 | COc1ccc2oc(C(=O)c3ccccc3)c(NC(=O)CN3CCN(C)CC3)c2c1 | 133%
2 | CCOC(=O)Nc1ccc2c(c1)N(C(=O)N(CC)CC)c1ccccc1CC2 | 88%
3 | CCOc1ccccc1OCC(=O)Nc1ccc(S(=O)(=O)N(C)C)cc1 | 18%
4 | COc1ccccc1-c1nc(Nc2ccncc2)c2ccccc2n1 | 22%
5 | COCCCNC(=O)CSc1nc2ccc(N3CCOCC3)cc2c(=O)n1CCc1ccccc1 | 119%
6 | O=C(O)Cn1c(C(F)(F)F)nc2ccccc21 | -13%
7 | CC(C)(O)/C=C\C(=O)[C@](C)(O)[C@H]1[C@H](O)C[C@]2(C)[C@@H]3CC=C4[C@@H](C=C(O)C(=O)C4(C)C)[C@]3(C)C(=O)C[C@@]12C | 17%[5.75 µM]
8 | O=C(Nc1ccccc1)c1ccccc1O | -10%
9 | CC(C)c1ccc(NC(=O)C2CCCN(S(=O)(=O)c3cnc[nH]3)C2)cc1 (stereo unspecified) | 23%
10 | Cc1ccc(C(=O)C2=C(O)C(=O)N(CCN(C)C)C2c2ccccn2)o1 (stereo unspecified) | 6%
11 | O=C(O)C(CC(=O)N1CCOCC1)NCc1ccccc1 (stereo unspecified) | -8%
12 | O=C(c1ccc(Cn2c(=O)[nH]c3ccccc3c2=O)cc1)N1CCN(c2ccc(F)cc2)CC1 | 48%
13 | OC(CN1CCOCC1)C12CC3CC(CC(C3)C1)C2 (stereo unspecified) | -7%
14 | Cc1nc(C)c(C(=O)Nc2cccc(C)c2C)o1 | 4µM*[single pt active]
15 | CCN(CC)CCOc1ncnc2c1oc1ccccc12 | -3%
16 | Cc1c(NC(=O)c2ccco2)cccc1-c1nc2cccnc2s1 | 21%
17 | Clc1ccc(OCc2nc(-c3ccccn3)no2)c(Br)c1 | 44%
18 | CCOc1ccc(NC(=O)CSc2nnc(Cn3c(=O)sc4ccccc43)n2C)cc1 | 4µM*[single pt active]
19 | O=C(Nc1nccs1)NC1CCCCC1 | 8%
20 | CCC(COC(=O)Nc1cccc(C)c1C)NC(=O)OCC(C)C (stereo unspecified) | 26%
21 | O=C1CCCCCN1Cc1nnc(SCc2nc3ccccc3s2)n1-c1ccccn1 | 39%
22 | Nc1cccc(N)c1 | -6%
23 | CCn1nnnc1NCc1cccn1C | 10%
24 | CCCCSc1nc(N)c(NC(=O)c2ccco2)c(=O)[nH]1 | 0%
25 | CCN1CCN(C(c2ccc(OC)c(OC)c2)c2nnnn2C(C)(C)C)CC1 (stereo unspecified) | 6%

Rewritten field by field: part of the list above
17	Clc1ccc(OCc2nc(-c3ccccn3)no2)c(Br)c1
  AmpC nodet inh = 44%

18	CCOc1ccc(NC(=O)CSc2nnc(Cn3c(=O)sc4ccccc43)n2C)cc1
  AmpC nodet inh = 4µM*[single pt active]

19	O=C(Nc1nccs1)NC1CCCCC1
  AmpC nodet inh = 8%

(continued)
item | structure | AmpC nodet inh
26 | O=C(NCC1CCCO1)c1ccc(CS(=O)(=O)Cc2ccc(F)cc2)o1 (stereo unspecified) | 4%
27 | CCc1c(C)sc(NC(=O)c2ccco2)c1C(=O)N1CCOCC1 | 17%
28 | CC1CCCCC1NC(=O)Cn1c(CN2CCCCC2)nc2ccccc2c1=O (stereo unspecified) | 8%
29 | Cc1nn(-c2ccccc2)c2sc(C(=O)N3CCOCC3)cc12 | 86%
30 | Cc1ccc(C)c(OCC(=O)Nc2ccc3c(c2)OCO3)c1C | -6%
31 | Cn1c(-c2ccc(F)cc2)cnc1SCC(=O)Nc1ccccc1N1CCOCC1 | 85%
32 | COC(=O)Nc1nc2c(C)cccc2s1 | 4%
33 | COc1ccc(OC)c(NC(=O)CSc2nc3c(c(=O)n(C)c(=O)n3C)n2C)c1 | 41%
34 | COCCn1nnnc1C(C(C)C)N(Cc1ccccc1)Cc1cc2cc(OC)ccc2[nH]c1=O (stereo unspecified) | 135%
35 | CCc1ccccc1N(C(=O)Cn1nnc2ccccc21)C(C(=O)NCCOC)c1ccco1 (stereo unspecified) | 93%
36 | O=C(O)[C@@H]1[C@@H](C(=O)NCc2ccncc2)[C@@H]2C=C[C@@H]1O2 | 8%[5.75 µM]
37 | CC1(c2ccc(OC(F)F)cc2)NC(=O)N(CC(=O)Nc2ccc3c(c2)OCO3)C1=O (stereo unspecified) | -9%
38 | Cc1cc(NC(=O)COn2nnc3ccccc32)no1 | -4%
39 | COc1ccc(C(=O)Nc2nncs2)c(OC)c1 | 4µM*[single pt active]
40 | CCCc1[nH]n(-c2nc3ccccc3s2)c(=O)c1C=NCC1CCCO1 (stereo unspecified) | 83%
41 | Cc1cc(C(=O)CN2C(=O)CCC2=O)c(C)n1Cc1ccccc1 | 21%
42 | CCCC1C(c2ccco2)NC(c2ccco2)CC1(C)O (stereo unspecified) | -10%
43 | CCOc1cccc(=O)c2c(C)n(Cc3ccco3)c(C)c12 | 6%
44 | S=c1nc2ccccc2c2nc(-c3ccccc3)[nH]n12 | -20%
45 | O=C(c1ccc2ccccc2n1)N1CCN(c2ccccc2)CC1 | 38%
46 | C=CCOc1ccc(/C=N/n2cncn2)cc1OC | 5%
47 | O=C1CCCC2=C1C(c1ccc(Br)cc1)c1c([nH]c(=S)[nH]c1=O)N2 (stereo unspecified) | -12%
48 | CC(=O)NCCNc1ncnc2ccc(-c3ccccc3C)cc12 | 71%
49 | Cc1ccc2nc3ccc(N4CCN(C)CC4)nn3c(=O)c2c1 | 7%
50 | Cc1ccc(S(=O)(=O)NC2=NCN(C3CCCCC3)CN2)cc1 | 1%
51 | CCCn1c(=O)c2ccccc2n2c(SCC(=O)c3ccc(F)cc3)nnc12 | -9%
52 | CCOC(=O)CC(=O)Nc1ccc(Br)cc1C(=O)O | -5%
53 | O=C(CC1(O)C(=O)N(Cc2ccc3c(c2)OCO3)c2ccccc21)c1ccccc1 (stereo unspecified) | -3%
54 | CCOCCCNS(=O)(=O)c1ccc2c(c1)OCCO2 | 7%
55 | O=C1CN(S(=O)(=O)c2ccc(F)cc2)CC(=O)N1CCc1ccccc1 | 3%
56 | CC(C)(C)C(=O)Nc1c2c(nc3c1CCC3)CCCC2 | 5%
57 | COc1ccc(C2NCCc3cc(OC)c(OC)cc32)cc1OC (stereo unspecified) | 0%
58 | CCOC(=O)c1cccc(NC(=O)CN2CCN(c3ccc(OC)cc3)CC2)c1 | 83%
59 | COc1ccccc1Cc1noc(-c2cc(Cl)ccc2OC)n1 | -10%
60 | COc1cc2nc(N3CCNCC3)nc(N)c2cc1OC | -4%
61 | Cc1noc(C)c1C(=O)N1CCC[C@@]2(CCN(c3ccccc3)C2)C1 | 122%
62 | O=C(CSc1nnc2c(Cl)cc(Cl)cn12)N1CCN(S(=O)(=O)c2ccccc2)CC1 | 62%
63 | Cn1c(-c2ccc(Cl)cc2)cnc1N | -4%
64 | Cc1ccc(S(=O)(=O)N2CCC(C(=O)OC(C)C(=O)NCc3ccc4c(c3)OCO4)CC2)cc1 (stereo unspecified) | ?
65 | O=c1[nH]c(=O)n([C@@H]2C[C@H](O)[C@H](CO)O2)cc1C(F)(F)F | -9%[12.8 µM]
66 | CCC(C)NC(=O)c1c(N)n(Cc2ccc3c(c2)OCO3)c2nc3ccccc3nc12 (stereo unspecified) | 17%
67 | CCCCCCC(=O)O | -11%
68 | COc1ccc(N2C(=O)C3CCCN3C2c2ccccc2OC)cc1 (stereo unspecified) | 15%
69 | Cc1cc(NCCCn2ccnc2)n2c(nc3ccccc32)c1C#N | -6%
70 | COc1ccc(-c2nc3cnc(Oc4cccc(Cl)c4)nc3n(C3CC3)c2=O)cc1 | 23%
71 | COc1cccc(C2C3=C(N=C4SCC(=O)N42)c2ccccc2CC3)c1OC (stereo unspecified) | 46%
72 | CC(=O)NC1(c2nnnn2CCOC(=O)Nc2ccc(Cl)cc2)CCCCC1 | 30%
73 | CN(C)CCCNC(=O)C1CCNCC1 | -3%
74 | CC(C)CNC(=O)C1C2C=CC(C2)C1C(=O)O (stereo unspecified) | -3%
75 | CCNC(=O)CC1C(=O)N(c2ccc(F)cc2)C(=O)N1CCC(C)C (stereo unspecified) | -2%

(more compounds)
item | structure | AmpC nodet inh
76 | Cc1ccc(-n2[nH]c(C)c(/C=N/n3c(C)nc4ccccc4c3=O)c2=O)cc1 | 46%
77 | Cc1ccc(NCc2nnc(SCc3ccc(C#N)cc3)n2Cc2ccco2)c(C)c1 | 58%
78 | Cc1cc(C)nc(N(C#N)Cc2ccccc2)n1 | -5%
79 | COc1ccc(Oc2ncc3nc(C)c(=O)n(Cc4cccs4)c3n2)cc1 | 96%
80 | COCCNC(=O)C(c1ccc(C)o1)N(C(=O)c1snc(C(N)=O)c1N)c1ccc(C)cc1 (stereo unspecified) | 70%
81 | CSCCC(NC(=O)c1occc1C)C(=O)O (stereo unspecified) | -5%
82 | CC(=O)c1sc(NC(=O)C2(F)C(F)(F)C(F)(F)C(F)(F)C(F)(F)C2(F)F)nc1C | -21%
83 | Cc1ccc2[nH]c(=O)c3cc(C(=O)N4CCN(C(=O)c5ccco5)CC4)sc3c2c1 | 100%
84 | O=C(Cn1cnc2sc(-c3ccccc3)cc2c1=O)N1CCOCC1 | 22%
85 | COc1nc2cc(C)ccc2cc1-c1noc(-c2cccnc2)n1 | 28%
86 | CCOC(=O)Cc1c(C)c2c(C)nn(-c3ccccc3)c2oc1=O | 30%
87 | Cn1c(=O)cc(OCCCC(=O)N2CCN(c3ccccn3)CC2)c2ccccc21 | 96%
88 | COc1ccc(N2C(=O)C(Cl)=C(N(CCO)Cc3ccccc3)C2=O)cc1 | 23%
89 | CCCn1c(=O)c2c(ncn2C)n(CCC)c1=O | 10%
90 | O=C(COc1ccc(S(=O)(=O)NC2CCCCC2)cc1)NCC1CCCO1 (stereo unspecified) | 16%
91 | CCOc1ccc(C(C)(C)C)cc1S(=O)(=O)N1CC(C)OC(C)C1 (stereo unspecified) | -9%
92 | CC(C)OCCCNC(=O)c1ccc(NS(C)(=O)=O)cc1 | 0%
93 | COc1cc(SC)ccc1C(=O)Nc1ccc(S(=O)(=O)N2CCCC2)cc1 | 10%
94 | O=C(O)C1C2C=CC(O2)C1C(=O)Nc1ccc2c(c1)OCCO2 (stereo unspecified) | 4%
95 | O=C(CN1CCN(c2ccccc2)CC1)Nc1c(C(=O)C2CC2)oc2ccccc12 | 23%
96 | Cc1ccc(C)c(S(=O)(=O)N2CC(=O)Nc3ccccc32)c1 | -16%
97 | Cc1c(Nc2ncnc3c2cnn3-c2ccccc2)c(=O)n(-c2ccccc2)n1C | 8%
98 | CCOc1nc(-c2ccc(OC)cc2)ccc1-c1noc(C)n1 | 90%
99 | O=C(C1CCCN(S(=O)(=O)c2cnc[nH]2)C1)N1CCN(Cc2ccccc2)CC1 (stereo unspecified) | 12%
100 | Nc1nc2ccc(C(=O)NC3CCCCC3)cc2s1 | 2%

Rewritten with each value named: part of the list above.
90	O=C(COc1ccc(S(=O)(=O)NC2CCCCC2)cc1)NCC1CCCO1 (stereo unspecified)
  AmpC nodet inh = 16%
78	Cc1cc(C)nc(N(C#N)Cc2ccccc2)n1
  AmpC nodet inh = -5%
97	Cc1c(Nc2ncnc3c2cnn3-c2ccccc2)c(=O)n(-c2ccccc2)n1C
  AmpC nodet inh = 8%
76	Cc1ccc(-n2[nH]c(C)c(/C=N/n3c(C)nc4ccccc4c3=O)c2=O)cc1
  AmpC nodet inh = 46%

Next compounds
item | structure | AmpC nodet inh
101 | CC1Cc2ccccc2N1C(=O)CSc1nc2ccccc2o1 (stereo unspecified) | 21%
102 | CCOC(=O)N1CCN(C(=O)c2cccn3c(=O)c4sccc4nc23)CC1 | -4%
103 | CCOc1ccc(OCc2cccc(C(=O)O)c2)cc1 | -2%
104 | O=c1c(-c2ccccc2)c(O)c2cccc3c2n1CCC3 | -16%
105 | CN(C)Cc1c(O)ccc2occ(C(O)c3ccccc3)c12 (stereo unspecified) | -6%
106 | COC(=O)C1=C(C)Nc2ncnn2C1c1ccc(OC(=O)c2ccccc2)cc1 (stereo unspecified) | -1%
107 | C=CCC(NCCCO)c1cccc(OC)c1OC (stereo unspecified) | -6%
108 | Cc1nc2ncnn2c(C)c1CCC(=O)N1CCOCC1 | 4%
109 | CCCCCCCCCCCC(=O)O[C@H](CC(=O)O)C[N+](C)(C)C | 152%
110 | CCCn1nnnc1SCC(=O)c1ccc(NC(C)=O)cc1 | 0%
111 | COc1ccc(N2C(=O)C3CCCN3C2c2ccc(C)o2)cc1Cl (stereo unspecified) | 14%
112 | O=C(N[C@@H](c1ccccc1)[C@@H]1C[C@H]1C(=O)O)OCc1ccccc1 | 9%
113 | CN1/C(=C\P(=O)(N(C)C)N(C)C)C(C)(C)c2ccccc21 | 46%
114 | O=C(O)c1ccccc1SCc1ccc2c(c1)OCO2 | -10%
115 | CCNc1nc(N)c(C(=O)c2ccc(Cl)s2)s1 | -1%
116 | COc1ccc(C(=O)NCc2nnc(SCC(=O)N3CCC(C)CC3)o2)cc1OC | -3%
117 | Cc1cc(C)c2c(c1)NC(=O)C2(O)CC(=O)c1cccs1 (stereo unspecified) | 5%
118 | CCN1CCCC1CNC(=O)c1cn(CC)c2ccc(S(=O)(=O)N3CCCCCC3)cc2c1=O (stereo unspecified) | 70%
119 | O=C(CCCN1CCC2(CC1)C(=O)N(Cc1cccc(F)c1)CN2c1ccccc1)c1ccc(F)cc1 | 20µM*[single pt active]
120 | C=CCOc1ccc(/C=C/C(C)=N\O)cc1 | 2%
121 | CCOC(=O)C1C(=O)N(C(=O)c2cncc(Br)c2)CC1c1ccccc1 (stereo unspecified) | 20%
122 | O=c1c(-c2cc(F)cc(F)c2)nc2cnc(N3CCOCC3)nc2n1Cc1ccc(F)cc1 | 2%

Compound activity deposited in PubChem by National Center for Advancing Translational Sciences (NCATS).
